# Source: PubChem (National Center for Advancing Translational Sciences (NCATS))
# Cruzain inh noDet = cruzain (T. cruzi) inhibition without detergent. purified cruzain, Z-FR-AMC fluorescence, no detergent. Potency, µM, for the others: max response, negative = inhibition, most hits filed as inhibitors. 200,000 tested, 2.3% active. AID 1476. P25779; active = well fitted curve in the direction sought with a large enough effect; inconclusive = small, poorly fitted or top-dose-only effect, or another doubt; inactive = no such curve, though single readings can be large; an effect the other way counts as inactive or inconclusive;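 note: plate controls were enzyme without inhibitor for no effect and buffer without enzyme for full effect; nearly all actives have a fitted effect of over 40% in size; top concentration of the series not given in the record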
# Target sequence (P25779 123-467 limits assumed): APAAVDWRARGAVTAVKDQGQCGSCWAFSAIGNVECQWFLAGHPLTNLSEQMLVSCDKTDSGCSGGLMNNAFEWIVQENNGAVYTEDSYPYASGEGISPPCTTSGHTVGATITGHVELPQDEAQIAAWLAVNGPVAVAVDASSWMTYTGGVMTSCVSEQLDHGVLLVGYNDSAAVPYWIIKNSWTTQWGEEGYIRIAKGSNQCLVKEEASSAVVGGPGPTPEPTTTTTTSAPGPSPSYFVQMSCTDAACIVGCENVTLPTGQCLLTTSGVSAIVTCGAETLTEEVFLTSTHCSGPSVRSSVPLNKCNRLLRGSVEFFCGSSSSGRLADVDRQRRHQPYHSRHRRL
#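 Purified cruzain at 1.5 nM, pre-incubated 15 min with compound at room temperature in 100 mM sodium acetate pH 5.5, 5 mM DTT, 0.00005% Triton X-100. Reaction started with 2 uM Z-FR-AMC; AMC fluorescence increase over 60 s gives rate.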
# NS1 function inh = inhibitors of influenza NS1 protein function; S. cerevisiae slowed by influenza A NS1, growth recovery by OD600; 270,000 tested, 0.4% active; Potency, µM (top dose mostly 46.1 µM), for inactives: at the top dose activity, positive = more growth; AID 2326; note: actives are rising curves; nearly all actives have a fitted effect of over 50% in size
#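 A cell-based growth assay was used: compounds that relieve NS1-induced slow growth of budding yeast raise OD600. Assay medium was yeast nitrogen base with ammonium sulphate and -URA supplement, pH 6.0, with 2% galactose.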
# MARV entry inh = Marburg virus entry inhibition; AID 540276; Potency, µM (highest dose often 37.8 µM), for inactives: at the highest dose activity change, negative = inhibition, hits mostly inhibitors; Marburg virus pseudotyped entry inhibition, cell reporter; control for the full effect not named in the record; about a third of the inactives were read at about 46 µM; 300,000 tested, 1.8% active; active = well fitted inhibition curve with a large enough effect; inconclusive = small, poorly fitted or top-dose-only effect, or effect the other way; inactive = flat fitted curve, though single readings scatter; tested in HEK293 cells; about a fifth of its hits are not listed in these tables; note: % is set by controls: 0 for no effect and ±100 for the full control effect; luciferase read-out
# RE007 growth inh = less growth of the S. pombe RE007 Vpr strain. S. pombe RE007 Vpr strain, BacTiter-Glo ATP luminescence, 24 h; control for the full effect not named in the record. Potency, µM (highest dose often 92.2 µM), for inactives: at the top dose activity change, negative = less growth. 360,000 tested, 0.21% active. AID 651644; active = well fitted falling curve with a large enough effect; inconclusive = small, poorly fitted or top-dose-only effect; inactive = no such curve, though single readings can be large or run the other way;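 note: % is set by controls: 0 for no effect and ±100 for the full control effect; nearly all actives have a fitted effect of over 50% in size; the assay follows cell death caused by Vpr and the record does not say whether a fall means rescue or toxicity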
#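 Fission yeast strain RE007, carrying one chromosomally integrated HIV-1 vpr copy, was seeded at OD 0.01 in PMG+AL medium with 23 nL pinned compound. After 24 h at 30 °C and 99% humidity, viability was read by BacTiter-Glo luminescence.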
# SARS PLpro yeast = blocks SARS-CoV papain-like protease in a yeast assay. Potency, µM (series often up to 32.9 µM), for inactives: at the top dose activity, positive = growth rescue. 330,000 tested, 0.19% active. S. cerevisiae expressing SARS-CoV PLpro, growth rescue; control for the full effect not named in the record; note: 0% is about no effect; nearly all actives have a fitted effect of over 55% in size; growth read by luminescence after 48 h
# Cruzain Triton = inhibitors of Trypanosoma cruzi cruzain with detergent | P25779 | purified cruzain, Z-FR-AMC fluorescence, 0.01% Triton | Potency, µM, for the others: max response, negative = inhibition, most hits filed as inhibitors | 200,000 tested, 0.43% active | AID 1478; active = well fitted curve in the direction sought with a large enough effect; inconclusive = small, poorly fitted or top-dose-only effect, or another doubt; inactive = no such curve, though single readings can be large; an effect the other way counts as inactive or inconclusive;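 note: plate controls were neutral wells for no effect and buffer without enzyme for full effect; nearly all actives have a fitted effect of over 40% in size; top concentration of the series not given in the record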
#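 15 min RT preincubation of 1.5 nM cruzain with compound, then 2 uM Z-FR-AMC added; kinetic AMC fluorescence, 60 s delta. Triton X-100 0.01%, pH 5.5.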
# StopGo reporter = FMDV 2A StopGo reporter, luciferase signal; 410,000 tested, 1.2% active; AID 1159524; human cells with a luciferase reporter of 2A StopGo recoding; control for the full effect not named in the record; Potency, µM (doses to about 57.9 µM), for inactives: at the top dose signal change, negative = less light; active = well fitted falling curve with a large enough effect; inconclusive = small, poorly fitted or top-dose-only effect; inactive = no such curve, though single readings can be large or run the other way; tested in HEK293T cells; note: % is set by controls: 0 for no effect and ±100 for the full control effect; nearly all actives have a fitted effect of over 45% in size; luciferase light after 4 h
# Lassa entry inh = inhibitors of Lassa virus binding or cell entry; Lassa virus pseudotype entry inhibition, cell reporter; control for the full effect not named in the record; Potency, µM (doses to about 37.9 µM), without a hit: at the top dose activity change, negative = inhibition, hits mostly inhibitors; 300,000 tested, 1.2% active; AID 540256; active means well fitted inhibition curve with a large enough effect; inconclusive means small, poorly fitted or top-dose-only effect, or effect the other way; inactive means flat fitted curve, though single readings scatter; tested in HEK293 cells; note: % is set by controls: 0 for no effect and ±100 for the full control effect; nearly all actives have a fitted effect of over 50% in size; luciferase read-out
# An asterisk follows results filed as active; ? = inconclusive; / = not tested or not shown; & = joins results of further samples; [ ] = another dose, or the depositor's remark. Unless noted, calls come from the whole dose curve; as a rule, active means well fitted rising curve with a large enough effect; inconclusive means small, poorly fitted or top-dose-only effect; inactive means no such curve, though single readings can be large or run the other way. Potency is the fitted concentration of half-maximal effect.
SMILES,Cruzain inh noDet,NS1 function inh,MARV entry inh,RE007 growth inh,SARS PLpro yeast,Cruzain Triton,StopGo reporter,Lassa entry inh
CCOC(=O)c1ccc(N2C=C(C(=O)OC)C(c3cccc(O)c3)C(C(=O)OC)=C2)cc1,/,7%,/,2%,0%,/,-9%,/
COc1cc(CC(=O)O)ccc1OCc1ccccc1,/,3%,6%[46.1 µM],-19%,1%,/,3%,-14%[46.1 µM]
CCCc1ccc(OCc2ccc(C(=O)N3CCSCC3)o2)cc1,/,-7%,?,-14%,-3%,/,0%,?
Cc1ccc(NS(=O)(=O)c2ccc(C(=O)NNC(=O)c3ccccc3O)cc2)cc1,/,/,?,-3%,17%,/,0%,-14%
Cc1cccc(C2NC(=O)c3c(sc(C)c3C)N2)c1O (stereo not drawn),-1%,-3%,7%,-4%,-8%,-1.9%,/,0%
Cc1ccccc1NC(=O)c1ccc(F)c(S(=O)(=O)N(C)C2CCCCC2)c1,11%,/,/,/,/,0.4%,?,?
Cn1cccc1/C=C1\C(=O)NC(=O)N(CCC2=CCCCC2)C1=O,20µM*,4%,?,3%,18%,-5.5%,-18%,-21%[46.1 µM]
COc1ccc2[nH]c3c(=O)n(CCCCC(=O)NCCC(C)C)c(=S)[nH]c3c2c1,/,/,7%,-5%,2%,/,-9%,8%
Cc1cc([N+](=O)[O-])ccc1NC(=O)Nc1ccc(F)cc1F,/,-8%,?,7%,0%,/,?,?
O=C1CCC(=O)N1c1ccc(S(=O)(=O)N2CCCC2)cc1,/,0%,/,7%,-2%,/,12%,/
Cc1ccc(N2CC(C(=O)N3CCOCC3)CC2=O)cc1Cl (stereo not drawn),/,3%,?,-1%,1%,/,32%[activator],0%[46.1 µM]
O=c1c2ccccc2n2c(-c3ccc(Cl)cc3)nnc2n1CCc1ccccc1,8%,/,2%[46.1 µM],/,/,6.3%,-6%,1%[46.1 µM]
CCOP(=O)(OCC)c1nc(-c2cccc3ccccc23)oc1NCCc1ccc(OC)cc1,?,-28%,?,14%,-27%,?,-30%,?
O=S1(=O)N=C(N2CCOCC2)c2ccccc21,18%,7%,?,10%,-1%,-0.7%,-19%,10%
COCCC1CCCCN1Cc1cn(-c2ccccc2)nc1-c1ccc2c(c1)OCO2 (stereo not drawn),/,1%,/,-8%,-1%,/,-13%,/
C=CCNC(=O)NC(=S)c1ccccc1,-1%,8%,29%,-26%,-1%,1.4%,0%,3%
O=C(c1cc2cc([N+](=O)[O-])ccc2oc1=O)N1CCOCC1,/,1%,-3%[46.1 µM],-1%,0%,/,4%,8%
Cc1ccc(CCNC(=O)CN2C(=O)COc3ccc(S(=O)(=O)N4CCC(C)CC4)cc32)cc1,?,5%,/,1%,4%,-6.8%,-1%&-14%,-16%[46.1 µM]
COc1ccc(CCN2C(=O)CS/C2=N\NC(=O)c2ccc(C(C)(C)C)cc2)cc1OC,11%,7%,-26%,5%,-15%,-4.8%,32µM*,-24%
COc1cc(/C=C/C(=O)N(C)c2ccccc2C(=O)O)cc(OC)c1OC,-3%,12%,3%[46.1 µM],13%,0%,0.9%,17%,-12%
COc1cccc(NC(=O)c2oc3ccccc3c2NC(=O)c2ccc3c(c2)OCO3)c1,?,13%,2%,2%,-14%,0.1%,15%,18%
CCOc1ccc(NC(=O)c2ccccc2NC(=O)CN2CCCCCC2)cc1,/,/,22%[46.1 µM],2%,3%,/,-20%,-4%
Cc1cccc2c1[nH]c1nc(N/N=C\c3ccco3)nnc12,-11%,13%,1%,/,4%,-1.3%,/,/
COc1ccccc1N1CCN(c2nnc(-c3ccc(F)cc3)c3ccccc23)CC1,-5%,-4%,2%,12%,-7%,-5.9%,20µM*,-3%
COc1ccccc1NC(=O)NNC(=O)C(C)Oc1ccc2ccccc2c1 (stereo not drawn),/,27%,19%[46.1 µM],2%,-1%,/,-6%,-6%[46.1 µM]
COc1ccc(S(=O)(=O)N2CCN(Cc3ccccc3)CC2)c(C)c1,/,-12%,/,-4%,1%,/,-25%,/
COc1ccc(C(=O)NNC2=NS(=O)(=O)c3ccccc32)cc1OC,/,10%,-6%[46.1 µM],11%,2%,/,-12%,6%[46.1 µM]
O=C(Nc1ccccc1)NC1(C(=O)N2CCN(c3ncccn3)CC2)CCCCC1,5%,-10%,-10%,-3%,1%,-2.3%,63%[activator],13%
FC(F)Oc1ccc(NC(=S)NC2CCCCCCC2)cc1,/,-19%,?,5%,28%,/,-8%,?
CC(=O)Nc1ccc(S(=O)(=O)Nc2nc3ccccc3nc2Nc2ccc(O)c(C(=O)O)c2)cc1,/,1%,/,10%,3%,/,7%,/
COc1ccc2cc(CN(Cc3cccnc3)S(=O)(=O)c3ccccc3)c(=O)[nH]c2c1,?,-10%,-8%,-21%,-5%,-1.2%,?,?
Cc1c(OC(C)C(=O)NCC2CCC(C(=O)O)CC2)ccc2c3c(c(=O)oc12)CCCC3 (stereo not drawn),/,3%,7%[46.1 µM],3%,-11%,/,-7%,14%[46.1 µM]
O=C(c1cccs1)N1CCC(C(=O)N2CCN(Cc3ccc4c(c3)OCO4)CC2)CC1,/,2%,?,13%,-1%,/,?,-3%
COC(=O)c1ccc(N/C=C\C(=O)c2ccc3c(c2)OCO3)cc1,/,-3%,15%[46.1 µM],-22%,0%,/,-16%,0%
COc1ccc(NS(=O)(=O)c2ccc3c(c2)NC(=O)CO3)cc1,/,/,0%[46.1 µM],9%,0%,/,4%,-8%[46.1 µM]
COc1cc(NC(=O)CSc2ccc3c(c2)OCCO3)cc(OC)c1OC,-2%,18%,-22%,9%,-7%,4.9%,?,-12%
Cc1ccc2nc(CSc3nnc(NC(=O)COc4ccccc4)s3)cc(=O)n2c1,14%,/,/,/,/,2.8%,-9%,7%[46.1 µM]
CC1CCC2(CC1)NC(=O)N(CC(=O)Nc1ccc(N3CCOCC3)cc1)C2=O (stereo not drawn),0%,10%,2%,0%,5%,-0.2%,3%,/
CCCCOc1ccc(C(=O)NCCc2ccccc2)cc1,/,1%,/,5%,?,/,53%[activator],/
CSc1cccc(N/C(=N/S(=O)(=O)c2ccccc2)NN)c1,/,10%,-14%[46.1 µM],-2%,-2%,/,-6%,-13%[46.1 µM]
O=C(NCCCCC(NC(=O)c1ccc([N+](=O)[O-])cc1)C(=O)O)c1ccc([N+](=O)[O-])cc1 (stereo not drawn),2%,3%,6%,-8%,13%,-3.0%,5%,12%
O=C1CC(C(=O)Nc2cccc3ccccc23)C2(CCCC2)O1 (stereo not drawn),-13%,5%,19%,-1%,-9%,-0.1%,4%,-4%
O=C(CN1CCN(S(=O)(=O)/C=C/c2ccccc2)CC1)Nc1ccccc1N1CCOCC1,/,-7%,-24%,-8%,-5%,/,44%[activator],?
Cc1cc(F)ccc1NC(=O)CCSc1nc(-c2ccco2)cc(C(F)(F)F)n1,0%,/,-1%[46.1 µM],/,/,-4.3%,-8%,7%[46.1 µM]
CCOC(=O)c1c(NC(=O)CSc2nnc(C)s2)sc2c1CCN(C)C2,-23%,?,-14%,-24%,0%,-11%,0%,17%
Cc1ccc(NC(=O)c2cc(S(=O)(=O)Nc3ccc(C)cc3)cs2)cc1,/,/,?,-5%,/,/,-16%,?
CCc1ccccc1NC(=O)CSc1ncc2c(n1)-c1ccccc1N(Cc1ccc(C)cc1)S2(=O)=O,0%,/,/,/,/,2.1%,-22%,-20%[46.1 µM]
Cc1ccc(CNC(=O)C2CC(c3ccccc3F)=NO2)cc1 (stereo not drawn),/,-6%,/,-25%,-2%,/,3%,/

# Structural class: the entries above containing a furan ring, fused or not.
SMILES,Cruzain inh noDet,NS1 function inh,MARV entry inh,RE007 growth inh,SARS PLpro yeast,Cruzain Triton,StopGo reporter,Lassa entry inh
CCCc1ccc(OCc2ccc(C(=O)N3CCSCC3)o2)cc1,/,-7%,?,-14%,-3%,/,0%,?
COc1cccc(NC(=O)c2oc3ccccc3c2NC(=O)c2ccc3c(c2)OCO3)c1,?,13%,2%,2%,-14%,0.1%,15%,18%
Cc1cccc2c1[nH]c1nc(N/N=C\c3ccco3)nnc12,-11%,13%,1%,/,4%,-1.3%,/,/
Cc1cc(F)ccc1NC(=O)CCSc1nc(-c2ccco2)cc(C(F)(F)F)n1,0%,/,-1%[46.1 µM],/,/,-4.3%,-8%,7%[46.1 µM]

# Later entries:
SMILES,Cruzain inh noDet,NS1 function inh,MARV entry inh,RE007 growth inh,SARS PLpro yeast,Cruzain Triton,StopGo reporter,Lassa entry inh
COc1ccc(C(=O)NC(=C(Cl)Cl)S(=O)(=O)c2ccc(C)cc2)cc1,/,4%,/,1%,-3%,/,-4%,/
CCN1CCc2nc(N)sc2C1,/,/,13%,-22%,0%,/,-14%,11%
O=C(Nc1sc2c(c1C(=O)N1CCOCC1)CCCCC2)c1cccnc1,/,/,3%[14.2 µM],-18%,-1%,/,4%,6%
Cc1cccc(Nc2ccccc2C(=O)NCc2ccco2)c1C,-2%,-5%,?,-21%,-27%,-2.9%,-22%,?
CCCS(=O)(=O)c1c(S(=O)(=O)CCC)c2c(N)cccn2c1C(=O)OC,/,3%,6%[46.1 µM],-3%,0%,/,-9%,0%[46.1 µM]
CCCCC(=O)Nc1nn(CC(C)C)c2nc3ccccc3cc12,-2%,8%,-9%,2%,1%,-1.1%,4%,-1%
COc1ccc(CCNC(=O)c2cccnc2)cc1,4%,2%,11%,8%,-9%,-2.5%,/,6%
O=C1/C(=C\c2c(NCCOCCO)nc3ccccn3c2=O)SC(=S)N1Cc1ccco1,/,13%,?,0%,-3%,/,-19%,-4%[46.1 µM]
CN(CC(=O)NCCCc1ccccc1)Cc1ccc(Br)cc1,/,-10%,-9%[46.1 µM],3%,1%,/,-2%,-6%[46.1 µM]
